Bioassay records as filed in PubChem BioAssay.
NS1 function inh: qHTS Assay for Inhibitors of Influenza NS1 Protein Function; S. cerevisiae slowed by influenza A NS1, growth recovery by OD600; Potency, µM (titrated, usually from 46.1 µM), without a hit: top-dose activity, positive = more growth; 0.4% of 270,000 active; further: actives are rising curves; nearly all actives have a fitted effect of over 50% in size
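S. cerevisiae expressing influenza A NS1, grown in glucose, washed, then diluted 1:100 into pH 6.0 -URA galactose medium with 23 nl compound. Growth recovery read as OD600; NS1-free strain serves as control.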
Cruzain inh Det: qHTS Assay for Promiscuous and Specific Inhibitors of Cruzain (with detergent); Cruzipain (Trypanosoma cruzi), P25779; purified cruzain, Z-FR-AMC fluorescence, 0.01% Triton; Potency, µM, inactives show max response, negative = inhibition, most hits filed as inhibitors; 0.43% of 200,000 active; active means well fitted curve in the direction sought with a large enough effect; inconclusive means small, poorly fitted or top-dose-only effect, or another doubt; inactive means no such curve, though single readings can be large; an effect the other way counts as inactive or inconclusive;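 further: plate controls were neutral wells for no effect and buffer without enzyme for full effect; nearly all actives have a fitted effect of over 40% in size; top concentration of the series not given in the record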
Target sequence (P25779 123-467 limits assumed): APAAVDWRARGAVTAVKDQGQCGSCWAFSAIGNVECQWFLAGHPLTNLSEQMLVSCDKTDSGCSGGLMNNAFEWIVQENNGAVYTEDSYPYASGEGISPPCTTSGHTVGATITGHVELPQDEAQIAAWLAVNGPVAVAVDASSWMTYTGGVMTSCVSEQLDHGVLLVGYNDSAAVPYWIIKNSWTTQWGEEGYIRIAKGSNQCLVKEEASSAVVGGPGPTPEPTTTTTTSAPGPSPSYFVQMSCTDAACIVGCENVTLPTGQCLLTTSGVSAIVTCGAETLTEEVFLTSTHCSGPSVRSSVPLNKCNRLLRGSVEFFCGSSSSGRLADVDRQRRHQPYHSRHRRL
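Cysteine protease activity tested under reducing, mildly acidic conditions (100 mM sodium acetate pH 5.5, 5 mM DTT) plus 0.01% Triton X-100. Cruzain 1.5 nM; substrate Z-FR-AMC 2 uM; 15 min compound preincubation at room temperature.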
Lassa entry inh: qHTS for Inhibitors of binding or entry into cells for Lassa Virus; Lassa virus pseudotype entry inhibition, cell reporter; control for the full effect not named in the record; Potency, µM (titrated, usually from 37.9 µM), without a hit: top-dose activity change, negative = inhibition, actives largely listed as inhibitors; AID 540256, 2011; 1.2% of 300,000 active; active means well fitted inhibition curve with a large enough effect; inconclusive means small, poorly fitted or top-dose-only effect, or effect the other way; inactive means flat fitted curve, though single readings scatter; tested in HEK293 cells; further: on the % scale 0 is the no-effect control and ±100 the full control effect; nearly all actives have a fitted effect of over 50% in size; luciferase read-out
SARS PLP yeast: qHTS of Yeast-based Assay for SARS-CoV PLP; S. cerevisiae expressing SARS-CoV PLpro, growth rescue; control for the full effect not named in the record; 0.19% of 330,000 active; Potency, µM (doses to about 32.9 µM), for the others: top-dose activity, positive = growth rescue; further: 0% is about no effect; nearly all actives have a fitted effect of over 55% in size; growth read by luminescence after 48 h
Cruzain inh noDet: qHTS Assay for Promiscuous and Specific Inhibitors of Cruzain (without detergent); Cruzipain (Trypanosoma cruzi), P25779; purified cruzain, Z-FR-AMC fluorescence, no detergent; 2.3% of 200,000 active; AID 1476, 2009; Potency, µM, for the others: max response, negative = inhibition, actives largely listed as inhibitors; active means well fitted curve in the direction sought with a large enough effect; inconclusive means small, poorly fitted or top-dose-only effect, or another doubt; inactive means no such curve, though single readings can be large; an effect the other way counts as inactive or inconclusive;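 further: plate controls were enzyme without inhibitor for no effect and buffer without enzyme for full effect; nearly all actives have a fitted effect of over 40% in size; top concentration of the series not given in the record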
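Detergent-free condition (0.00005% Triton X-100) in acetate buffer pH 5.5 with DTT. 1.5 nM enzyme and compound were pre-mixed 15 min, then 2 uM Z-FR-AMC substrate added; reaction progress from fluorescence change between first and third reads (60 s).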
MARV entry inh: qHTS for inhibitors of binding or entry into cells for Marburg Virus | Marburg virus pseudotyped entry inhibition, cell reporter; control for the full effect not named in the record; about a third of the inactives were read at about 46 µM | Potency, µM (titrated, usually from 37.8 µM), inactives show at the highest dose activity change, negative = inhibition, most hits filed as inhibitors | 1.8% of 300,000 active | AID 540276, 2011; active = well fitted inhibition curve with a large enough effect; inconclusive = small, poorly fitted or top-dose-only effect, or effect the other way; inactive = flat fitted curve, though single readings scatter; tested in HEK293 cells; about a fifth of its hits are not listed in these tables; further: on the % scale 0 is the no-effect control and ±100 the full control effect; luciferase read-out
StopGo reporter: High Throughput Screening for Foot and Mouth Disease Virus Antivirals; human cells with a luciferase reporter of 2A StopGo recoding; control for the full effect not named in the record; Potency, µM (doses to about 57.9 µM), for the others: at the highest dose signal change, negative = less light; 1.2% of 410,000 active; active = well fitted falling curve with a large enough effect; inconclusive = small, poorly fitted or top-dose-only effect; inactive = no such curve, though single readings can be large or run the other way; tested in HEK293T cells; further: on the % scale 0 is the no-effect control and ±100 the full control effect; nearly all actives have a fitted effect of over 45% in size; luciferase light after 4 h
RE007 growth inh: qHTS Assay for Inhibitors of the HIV-1 protein Vpr | 0.21% of 360,000 active | S. pombe RE007 Vpr strain, BacTiter-Glo ATP luminescence, 24 h; control for the full effect not named in the record | Potency, µM (highest dose often 92.2 µM), inactives show top-dose activity change, negative = less growth | AID 651644, 2012; active = well fitted falling curve with a large enough effect; inconclusive = small, poorly fitted or top-dose-only effect; inactive = no such curve, though single readings can be large or run the other way;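 further: on the % scale 0 is the no-effect control and ±100 the full control effect; nearly all actives have a fitted effect of over 50% in size; the assay follows cell death caused by Vpr and the record does not say whether a fall means rescue or toxicity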
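Fission yeast strain RE007, carrying one chromosomally integrated HIV-1 vpr copy, was seeded at OD 0.01 in PMG+AL medium with 23 nL pinned compound. After 24 h at 30 °C and 99% humidity, viability was read by BacTiter-Glo luminescence.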
* hit, by the source's call; ? = inconclusive; . = no result given; & = joins results of further samples; [ ] = remark or other dose. Unless noted, the call rests on the fitted dose curve; in most records, active means well fitted rising curve with a large enough effect; inconclusive means small, poorly fitted or top-dose-only effect; inactive means no such curve, though single readings can be large or run the other way. Potency means the concentration at half of the fitted maximal effect.

SMILES | NS1 function inh | Cruzain inh Det | Lassa entry inh | SARS PLP yeast | Cruzain inh noDet | MARV entry inh | StopGo reporter | RE007 growth inh
CC(=O)N1CCCN(C(=O)c2cc(COc3c(F)cccc3F)on2)CC1 | 24% | . | 15% | 3% | . | -2% | -17% | -12%
Cn1nnc(CC[N+](C)(C)C)n1 | 0% | . | 3% | 4% | . | 27%[46.1 µM] | -4% | 3%
CN(CCC1CCCCO1)C(=O)c1cc(COc2ccc(F)cc2F)on1 (stereo not given) | -18% | . | ? | 2% | . | ? | 14% | -10%
COC(=O)c1ccc(CSc2nc3c(cnn3-c3ccc(F)cc3)c(=O)[nH]2)o1 | 8% | -2.5% | -1% | -10% | -12% | 4% | -25% | -15%
CC(Oc1ccccc1Cl)C(=O)Nc1ccc(S(=O)(=O)N2CCN(C)CC2)cc1 (stereo not given) | . | . | ? | . | . | ? | ? | 0%
COC(=O)Cc1c(C)nc2nc(Cc3ccccc3)[nH]n2c1=O | -2% | -3.7% | -4% | 2% | 6% | 11%[46.1 µM] | -4% | 18%
Cc1ccccc1N(C(=O)CNC(=O)c1cccs1)C(C(=O)NC1CCCC1)c1ccncc1 (stereo not given) | 0% | . | -13% | 0% | . | -23%[46.1 µM] | 16% | 27%
COc1ccc2c(CNCCc3ccc(SC)cc3)c(C(=O)O)n(Cc3ccc(F)cc3)c2c1 | . | -8.2% | ? | . | ? | . | -18% | .
N#C/C(=C/c1ccc(OC(=O)c2ccc(Br)s2)cc1)c1nc2ccccc2[nH]1 | . | . | -8%[46.1 µM] | . | . | ? | 19% | 11%
Cc1cc(C)nc(N/N=C/c2ccc3c(c2)OCCO3)n1 | -2% | . | -10%[46.1 µM] | 2% | . | -3%[46.1 µM] | 17% | -8%
C=CCOC(=O)C1=C(C)NC(SCC(=O)N(CC)CC)=C(C#N)C1c1ccco1 (stereo not given) | -13% | -2.7% | ? | 3% | ? | ? | -12%&0% | 2%&-8%
COc1ccc(-c2nn3cnnc3s2)cc1OC | 1% | -1.6% | 1% | 1% | 0% | -1% | 0% | 12%
COC(=O)c1cc(C(=O)OC)n(Cc2ccc(C)cc2)c1C | . | . | ? | 0% | . | 0%[46.1 µM] | 11% | 11%
O=C(Nc1ccc(S(=O)(=O)N2CCOCC2)cc1)c1ccccc1Br | -10% | . | . | 2% | . | . | . | 3%
O=C(NCCCn1ccnc1)c1cn(-c2ccccc2)nc1-c1ccccc1 | -8% | 2.5% | 7% | . | 14% | -2% | . | 0%
Cc1cc(C)nc(N/N=C/c2sccc2C)n1 | -5% | . | 1% | -2% | . | ? | 62%[activator] | -4%
NC(=O)c1ccccc1N=Cc1ccc2ccccc2c1 | -11% | -5.1% | -3% | 18% | -10% | ? | -7% | 4%
C=C(C)CNC(=S)N1CCN(C(c2ccccc2)c2ccccc2)CC1 | . | . | -7% | -1% | . | -15%[46.1 µM] | 8% | 3%
CCC(=O)Nc1ccc2c(c1)nc(CN1CCCCC1)n2C | 3% | . | 23%[46.1 µM] | 0% | . | ? | 6% | -3%
O=C(COC(=O)Cn1cnc2ccccc21)NCCc1ccccc1 | 1% | 1.0% | -7% | 3% | -3% | 0% | 10% | 19%
CCOC(=O)C(=CNc1ccc(C#N)cc1)C(=O)OCC | -5% | . | . | 0% | . | . | -16% | 4%
NC(=O)C1CC(=O)N(c2ccc(OCc3ccc(Cl)cc3)cc2)C1 (stereo not given) | -4% | . | . | 0% | . | . | 72%[activator] | -9%
CC(C(=O)N1CCc2ccccc21)N1CCN(S(=O)(=O)c2ccc(C(F)(F)F)cc2)CC1 (stereo not given) | . | . | -8% | -1% | . | -28% | ? | -13%
c1ccc2[nH]c(CN3CCN(c4ncnc5c4oc4ccccc45)CC3)nc2c1 | -67% | -8.5% | -5% | 5% | 10% | ? | ? | 9%
Cn1c(=O)c2[nH]c(-c3ccccc3Cl)c(O)c2n(C)c1=O | 22% | -4.4% | 0% | -8% | -4% | 7% | 7% | -4%
N#CCc1ccc(NS(=O)(=O)c2ccc(C3CCCCC3)cc2)cc1 | -2% | -11% | 0% | -78% | -2% | ? | 33%[activator] | 9%
Cc1ccc(CSCC(=O)Nc2ccccc2C(=O)O)cc1 | 16% | . | . | 3% | . | . | 48%[activator] | 1%
CCOC(=O)c1c(C)oc2ncnc(N3CCN(c4ccccc4F)CC3)c12 | . | -3.8% | ? | . | -12% | . | 32µM* | .
O=c1[nH]c(=S)n(C2CCCCC2)c(O)c1/C=N/N1CCOCC1 | -5% | . | . | -1% | . | . | 6% | 22%
CC(=O)Nc1ccc2c(c1)nc(CCN1CCC(C)CC1)n2C | 6% | 7.7% | 6% | 15% | -3% | 3% | 18% | 23%
Cc1ccc(CNC(=O)Cn2ncc3c([nH]c4ccc(C)cc43)c2=O)cc1 | . | -0.6% | 15%[46.1 µM] | . | 8% | . | 3% | .
C=C1CCC[C@]2(C)C[C@H]3OC(=O)C(CN[C@@H](C)c4ccccc4)[C@H]3CC12 (stereo not given in full) | 2% | . | ? | 1% | . | ? | -24% | -2%
CCC(=O)c1ccc(OCC(=O)NNC(=O)c2cc(C)oc2C)cc1 | . | . | 4% | 0% | . | ? | 14% | -12%
COc1ccc(CCNC(=O)Cc2ccc(NC3=NC4CS(=O)(=O)CC4S3)cc2)c(OC)c1 (stereo not given) | -8% | . | . | 4% | . | . | -9% | 0%
N#CC(C#N)=NNc1ccc2cn[nH]c2c1 | -6% | -18% | . | . | ? | . | ? | 7%
COc1ccc(O)c(/C=N/n2c(-c3ccco3)csc2=Nc2cccnc2)c1 | 8% | -3.1% | ? | -4% | ? | -2% | ? | 9%
COC(=O)CNC(=O)c1ccc2c(c1)S(=O)(=O)c1ccccc1C2=O | 3% | -3.3% | -23% | 1% | -9% | -3% | -4% | -6%
CCOC(=O)c1c2n(c3ccc(O)cc13)CCC2 | -5% | 2.3% | 1% | 24% | -21% | ? | -5% | 18%
COc1ccc(N2CCN(C(=O)COCc3cc(-c4ccc5c(c4)OCO5)on3)CC2)cc1 | -1% | . | -3%&0%[46.1 µM] | 3% | . | 11%&11%[46.1 µM] | -16%&-21% | 17%
Cc1ccc(Cl)cc1NC(=O)CSc1nc2ccccc2c2nc(-c3ccccc3)nn12 | . | 1.3% | ? | . | 0% | . | 8% | .
CCCN(CCC)CC(O)CN1C(=O)NC(C)(C)C1=O (stereo not given) | 2% | . | -6% | 0% | . | -17%[14.2 µM] | 8% | -13%
N#C/C(=C(/O)CN1CCCC1)c1nc(-c2ccccc2)cs1 | 8% | . | 5% | 0% | . | 3% | 50%[activator] | -17%
CC(C)(C)Nc1nc(NC(C)(C)C)nc(-n2ccnc2)n1 | -14% | -3.0% | -24% | -4% | -3% | ? | ? | -9%
N#CCSc1nc(-c2ccccc2)nc2ccc(F)cc12 | 0% | . | . | 3% | . | . | -12% | 2%
CCc1ccc(-c2cc(C(=O)N/N=C/c3c[nH]c4ccccc34)[nH]n2)cc1 | . | . | ? | -6% | . | ? | ? | 3%
Cc1cccc(NC(=O)CSc2nnc(-c3cc(C)n(-c4ccccc4)c3C)o2)c1C | ? | -5.2% | ? | -33% | ? | -5% | 6% | 15%
CCn1c2ccccc2c2cc(NC(=O)COC(=O)c3cccc(S(=O)(=O)NC)c3)ccc21 | 10µM* | -2.2% | 1% | -4% | -26% | -23% | -14% | -1%
O=C(Nc1cccc(-c2nc3ccccc3s2)c1)c1ccc2c(c1)OCO2 | 10% | 4.0% | 5% | -2% | ? | 12% | . | 1%
Cc1nnc(SCc2nnc(-c3cccs3)o2)s1 | . | . | ? | 0% | . | 8% | 45%[activator] | 0%
CCOC(=O)C(C)Sc1nnc2ccc3ccccc3n12 (stereo not given) | . | -4.1% | 1%[46.1 µM] | . | -3% | 8%[46.1 µM] | 37%[activator] | .
COc1ccc(S(=O)(=O)N2CCCC(C(=O)NCc3cccnc3)C2)cc1 (stereo not given) | -2% | . | 0% | 0% | . | -1%[46.1 µM] | -12% | -3%
COc1ccccc1NC(=O)COc1ccc2ccccc2c1 | -32% | . | -17%[46.1 µM] | -8% | . | 20%[46.1 µM] | -2% | 1%
Cc1ccc(Cl)cc1N1CCN(C(=O)c2ccc3nc[nH]c3c2)CC1 | 6% | -4.2% | ? | -5% | -2% | ? | -16% | 21%
Cc1cc2cc(C)c(NCCNC(=O)c3ccccc3F)nc2cc1C | -4% | . | -4% | -1% | . | -10%[46.1 µM] | -10% | -11%
CCOCCCNC(=S)Nc1cc(C)cc(C)c1 | 5% | -4.9% | 9% | -6% | -9% | ? | 12% | 16%
CC(=O)OCC1=C(C(=O)O)N2C(=O)C(NC(=O)CCn3nc(C)c(Cl)c3C)C2SC1 (stereo not given) | . | . | 16%[46.1 µM] | -5% | . | -3%[46.1 µM] | -9% | -3%
COc1cc(Cc2ccc(N)c(OC)c2)ccc1N | 14% | 0.1% | -8% | 23% | 2% | 3% | -7% | -5%
N#Cc1ccc(C(=O)OCC(=O)N2CCOCC2)cc1 | -1% | . | 8% | 10% | . | 4%[46.1 µM] | 11% | 31%
NS(=O)(=O)c1cccc(NC(=O)CCSc2ccc(Cl)cc2)c1 | 29% | -7.5% | 2% | -1% | -3% | 6% | -4% | -3%
Cn1c(CN2CCCCC2)nc2cc([N+](=O)[O-])ccc21 | . | . | 0% | 0% | . | 24%[46.1 µM] | 2% | -9%
CO/N=C(/COc1ccc(F)cc1)c1ccc(OC)cc1 | -2% | . | -21% | 0% | . | ? | 9% | 2%
O=C(OCC1OC2C(Oc3nc(=O)ccn32)C1O)c1ccccc1 (stereo not given) | 12% | 4.8% | 5% | 5% | 2% | -6% | 19% | 8%
